# RecA splice inh – inhibitors of M. tuberculosis RecA intein splicing | cell-free RecA intein splicing, fluorescence | inhibition, %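 (about 9 µM by stock and volumes)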 | hit rate 0.75% among 290,000 | AID 2221; in the data active = inhibition above about 30%; inconclusive = no clear call, values can overlap the other calls;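 also: 0% = vehicle wells and 100% = reference inhibitor control wells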
# Target sequence (P9WHJ3 whole entry, looked up, canonical isoform): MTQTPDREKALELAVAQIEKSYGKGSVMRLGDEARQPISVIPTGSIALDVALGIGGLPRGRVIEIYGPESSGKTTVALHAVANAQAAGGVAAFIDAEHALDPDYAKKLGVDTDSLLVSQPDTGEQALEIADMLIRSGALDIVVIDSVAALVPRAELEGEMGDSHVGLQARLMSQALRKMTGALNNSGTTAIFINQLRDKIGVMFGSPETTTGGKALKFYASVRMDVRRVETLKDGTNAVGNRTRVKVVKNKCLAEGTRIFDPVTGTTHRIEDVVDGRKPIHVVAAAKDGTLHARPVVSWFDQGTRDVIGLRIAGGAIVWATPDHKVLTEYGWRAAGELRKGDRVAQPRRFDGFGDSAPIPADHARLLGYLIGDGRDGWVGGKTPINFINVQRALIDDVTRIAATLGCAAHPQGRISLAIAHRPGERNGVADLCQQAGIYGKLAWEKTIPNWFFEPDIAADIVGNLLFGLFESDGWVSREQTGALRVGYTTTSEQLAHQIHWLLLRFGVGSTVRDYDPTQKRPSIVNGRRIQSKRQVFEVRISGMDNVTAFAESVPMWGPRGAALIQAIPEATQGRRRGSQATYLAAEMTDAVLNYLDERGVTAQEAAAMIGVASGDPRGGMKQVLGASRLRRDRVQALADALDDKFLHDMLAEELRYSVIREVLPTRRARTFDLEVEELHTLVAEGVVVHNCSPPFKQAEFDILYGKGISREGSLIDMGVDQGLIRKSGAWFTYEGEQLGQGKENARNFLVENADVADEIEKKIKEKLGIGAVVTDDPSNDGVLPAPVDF
# Arbovirus anti – antivirals against arbovirus infection | hit rate 0.37% among 200,000 | AID 1251 | arbovirus infection cell-based antiviral screen | inhibition, % at 10 µM;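 active = inhibition from about 30%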;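 also: bluetongue infection of BSR cells; cell survival read as ATP light after 72 h; 0% = infected wells without compound and 100% = uninfected wells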
# YopH PTP inh – inhibitors of Yersinia enterocolitica YopH tyrosine phosphatase; fluorescence Ex485/Em525; inhibition, %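 (about 10 µM by stock and volumes)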; hit rate 0.16% among 140,000;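 active = inhibition of 50% or more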;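 also: controls were vehicle for no effect and minimum signal wells for full effect; inactives centre near -20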
# Mtb H37Rv – M. tuberculosis H37Rv growth inhibitors, H37Rv strain (AID 1626). hit rate 0.95% among 220,000. M. tuberculosis H37Rv growth inhibition; higher % means a stronger effect. inhibition, % at 10 µM, or IC50 in µM where a hit was titrated;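 active = confirmed in a dose series; inconclusive = inhibition above 80% but not taken into the dose series; inactive = below 80% or under 30% at every dose of the series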;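 also: bacteria incubated seven days before Alamar blue readout; 0% = bacteria only wells and 100% = bacteria with antibiotic wells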
# Mtb betalactam – beta-lactam sensitization of Mtb H37Rv; M. tuberculosis H37Rv growth with meropenem, percent inhibition; hits of this screen are not shown here; inhibition, % at 25 µM; hit rate 0.27% among 330,000;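 active = about 74% or more and at least 40 points above the plate without the antibiotic, then above 30% in a dose series; inconclusive = first-round hits that could not be retested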;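 also: growth measured after seven days incubation then overnight dye step; 0% = bacteria only wells and 100% = bacteria with antibiotic; twin plates without the antibiotic show which effects depend on it; some results filed as inactive read as strong as hits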
# Arbovirus anti repeat – further read-out of Arbovirus anti, marked with its call; inhibition, %; measured here: 10K subset replicate screen; many hits read low in the repeat;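 first of two repeat runs on a subset; 0% = infected and 100% = uninfected wells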
# * marks the source's active call; other numbers are inactive results; ? = inconclusive; . = no result given. Some of the compounds tested; the hit share may differ from the screen's.
SMILES,RecA splice inh,Arbovirus anti,YopH PTP inh,Mtb H37Rv,Mtb betalactam,others
O=C(NCCc1c[nH]c2ccccc12)[C@@H]1C[C@H]1[C@@H](NP(=O)(c1ccccc1)c1ccccc1)c1ccccc1,.,-40,-29,2%,.,
COc1cc(C2NC(=O)NC(C)=C2C(=O)OC2CCCCC2)cc(Br)c1O (centres undefined),16,12,-39,-9%,1,Arbovirus anti repeat=-2
O=C(COc1ccc(Br)cc1)Nc1nc(-c2cccnc2)cs1,-0.6,.,.,.,-1,
O=C1c2ccccc2C(=O)c2c(NCc3cccnc3)cccc21,3.1,-4,-23,10%,-1,
CCOC(=O)N1CCN(C(=O)CSc2nc3ccccc3c(=O)n2-c2ccccc2)CC1,.,-1,0,-3%,-10,
CC(C)(C)C(=O)N(Cc1ccc(Cl)cc1)Cc1cccnc1,-3.9,.,.,-6%,-6,
CCS(=O)(=O)Nc1cccc(C2=NN(S(=O)(=O)c3ccccc3)C(c3ccco3)C2)c1 (centres undefined),1.3,.,.,-5%,-6,
O=C(NCCc1ccc2c(c1)OCCO2)c1ccc(F)cc1,1.3,4,-17,29%,-6,
C[C@@H]1CCC(=O)N(CC[C@H](N=[N+]=[N-])c2ccccc2)CC1,-0.6,.,.,.,-6,
Cc1ccc(C)c(N2CCN(C(=O)CCCn3ncn4c(cc5occc54)c3=O)CC2)c1,7.0,.,.,.,27,
CCN1CCN(C(=O)CSc2cc(=O)n(C)c3ccccc23)CC1,-1.0,-2,.,-3%,-7,
COCCNC(=O)c1cc(-c2ccc(OC)c(OC)c2)on1,-0.5,3,6,7%,9,
Clc1ccc(OCCSc2ncccn2)c(Br)c1,9.1,-17,.,12%,4,
COc1ccc(NS(=O)(=O)c2ccc(N3CC(O)=C(c4ccccc4)C3=N)cc2)cc1,0.5,.,.,-10%,0,
N#C/C=C1/NC(=O)c2ccccc2S1,-1.6,3,-27,-13%,-5,
CCCCOc1ccc(NC(=O)CN2CCN(CC)CC2)cc1,-1.9,.,.,.,-3,
COc1cc(C(=O)NCc2nnc(SCC(=O)N3CCCC3)o2)cc(OC)c1OC,-6.0,.,.,.,-9,
CCCc1cc(=O)oc2c(CN3CCCC3)c(O)ccc12,-80,2,-29,-7%,-8,
CC(=O)c1cccc(NC(=S)NC2CCCCC2)c1,-7.1,-3,-36,-5%,13,
CCOC(=O)C1=C(CC)Nc2ccccc2N=C1NC(=O)Nc1ccc(Cl)c(Cl)c1,2.1,-24,-3,2.7µM*,99,
O=c1oc2ccccc2c(NC2CCCCC2)c1NS(=O)(=O)c1ccc(Br)cc1,-0.7,.,.,.,-9,
S=C(NCc1cccs1)Nc1ccccc1,4.6,-8,-5,4%,6,
CC(C)c1nnc(NC(=O)CC(C)c2ccccc2)s1 (centres undefined),3.3,.,.,.,0,
Cc1cc(Cl)ccc1OCC(=O)Nc1ccccc1CO,3.8,4,-141,6%,-13,
CCOc1ccc(S(=O)(=O)NN)cc1,2.0,-3,-10,-6%,9,

# Fetched by structure from the list above:
SMILES,RecA splice inh,Arbovirus anti,YopH PTP inh,Mtb H37Rv,Mtb betalactam,others
O=C1c2ccccc2C(=O)c2c(NCc3cccnc3)cccc21,3.1,-4,-23,10%,-1,
Cc1ccc(C)c(N2CCN(C(=O)CCCn3ncn4c(cc5occc54)c3=O)CC2)c1,7.0,.,.,.,27,
CCCc1cc(=O)oc2c(CN3CCCC3)c(O)ccc12,-80,2,-29,-7%,-8,
Cc1cc(Cl)ccc1OCC(=O)Nc1ccccc1CO,3.8,4,-141,6%,-13,

# (cont.)
SMILES,RecA splice inh,Arbovirus anti,YopH PTP inh,Mtb H37Rv,Mtb betalactam,others
CCOC(=O)C1CCCN(c2oc(-c3ccc(OC)cc3)nc2C#N)C1 (centres undefined),3.2,19,.,13%,47,
COc1ccc(CN(C)S(=O)(=O)c2ccc3c(c2)OCCO3)cc1,1.7,.,.,.,?,
Cc1nc2c(sc(=S)n2Cc2ccco2)c(=O)n1CC(=O)Nc1ccccc1F,-2.2,.,.,.,6,
CN1CCN(S(=O)(=O)c2ccc3[nH]c(=O)oc3c2)CC1,-1.9,1,-21,-7%,3,
COc1cc(Nc2ccccc2Cl)c([N+](=O)[O-])nc1[N+](=O)[O-],2.2,-9,-10,-6%,-1,
Cn1c(CCCCCN)nc2ccccc21,-3.8,-3,-16,-1%,-3,
CC(=O)c1cccc(CN2CCC(n3nccc3NC(=O)c3ccc4c(c3)OCO4)CC2)c1,0.0,.,.,.,-3,
O=C(CSc1ncc(-c2ccccc2)[nH]1)Nc1cccc(O)c1,-0.1,1,-20,6%,4,
COC(=O)c1ccccc1NC(=O)CCC(=O)N1CCSc2ccccc21,-0.9,.,.,.,?,
CCOC(=O)c1cc(NC(=O)Nc2ccc(OC)c(OC)c2)c(C)nc1C,0.1,-4,47,-2%,-6,
CC(C)(C)n1ncc2c(=O)n(CC(=O)c3ccc(Cl)cc3)cnc21,0.9,19,-11,3%,62,
CCOC(=O)c1ccc(S(=O)(=O)N2CCN(CC3CC=CCC3)CC2)cc1 (centres undefined),0.8,6,-40,5%,0,
O=C(NNS(=O)(=O)c1ccc(Br)cc1)C1CCCCC1,-2.3,11,.,4%,-5,
O=C(N/C(=C\c1cccs1)C(=O)N1CCOCC1)c1ccco1,3.0,3,.,-11%,-3,
CC1CC(C)CN(C(=O)C(C)N(C)CC(=O)Nc2ccccc2Cl)C1 (centres undefined),-3.0,-6,.,2%,-4,
COC(=O)c1ccccc1C(=O)N1CC(O)CO1 (centres undefined),-0.9,.,.,.,-6,
O=C(COc1ccc(Cl)cc1)Nc1nnc(S(=O)(=O)N2CCCCCC2)s1,3.5,.,.,.,4,
CCN(CC)c1nc(Nc2ccc([N+](=O)[O-])cc2)nc(N(CC)CC)n1,-1.8,.,.,.,6,
Cn1c2ccccc2c2c(C(=O)NCCCN3CCCC3=O)cn(C3CCCCC3)c(=O)c21,-3.3,-5,-20,2%,4,
C/C=C\C(=O)Nc1cccc(C2=NOC3(C2)C[C@@H](C(N)=O)N(C(=O)CC(c2ccccc2)c2ccccc2)C3)c1 (some centres undefined),6.6,.,.,9%,-6,
CCOC(=O)C1CCN(C(=O)CCC2CCCC2)CC1,3.5,.,.,.,-23,
COc1ccc(N(C(C)=O)S(=O)(=O)c2cccc3cccnc23)cc1,-1.5,1,-9,-7%,-3,
O=C(CCn1nc(-c2ccc(Cl)cc2)ccc1=O)N1CCOCC1,2.5,0,-26,1%,-16,
Cc1ccc(C(=O)CSc2nc(C)cc(C)c2C(N)=O)cc1,.,-21,-17,56%,78,
COc1ccc(Nc2nc(N)nc(CSc3nncn3C)n2)cc1,3.2,4,-15,0%,5,

# Gathered by group, those above with a nitro group on carbon
SMILES,RecA splice inh,Arbovirus anti,YopH PTP inh,Mtb H37Rv,Mtb betalactam,others
COc1cc(Nc2ccccc2Cl)c([N+](=O)[O-])nc1[N+](=O)[O-],2.2,-9,-10,-6%,-1,
CCN(CC)c1nc(Nc2ccc([N+](=O)[O-])cc2)nc(N(CC)CC)n1,-1.8,.,.,.,6,

# (cont.)
SMILES,RecA splice inh,Arbovirus anti,YopH PTP inh,Mtb H37Rv,Mtb betalactam,others
Cc1ccc2[nH]cc(C(=O)CN3CCN(C)CC3)c2c1,0.4,-1,24,-4%,26,
CC(C)c1ccc(C(=O)CSc2n[nH]c(-c3ccncc3)n2)cc1,0.8,11,-5,-2%,55,
Fc1ccccc1CSCc1nc2ccccc2[nH]1,-1.2,0,.,2%,-3,
CSc1nc(-c2ccccc2)nc(C(Cl)Cl)n1,8.2,-18,-23,1.4µM*,100,
Cc1ccc(SCc2c(C(=O)N/N=C/c3ccncc3)nnn2-c2nonc2N)cc1,-0.1,.,.,.,4,
Cc1cccc(OCC(=O)Nc2cc(C)c(C)cc2O)c1,-1.9,8,-55,-2%,4,
COCCN1Cc2cccc(C(=O)Nc3ccc(S(=O)(=O)N4CCOCC4)cc3)c2C1=O,-0.2,-1,.,5%,-1,
CCn1nc(CC(=O)O)c2ccccc2c1=O,2.6,7,.,2%,-5,
Cn1ccnc1SCC(=O)c1ccc(C#N)cc1,-0.1,.,.,.,7,
CC(C)(C)n1nc2c(c1NC(=O)COc1ccc(Cl)cc1)CSC2,3.8,-4,-28,0%,-12,
CSc1sc2ccccc2[n+]1CCCS(=O)(=O)[O-],1.2,-1,-24,-2%,0,
Cc1cc2occ(CC(=O)NCc3cccs3)c2cc1C(C)C,5.8,-7,-19,0%,14,
CN(C)C(CNc1ncccn1)c1ccccc1 (centres undefined),0.2,.,.,.,1,
CC12CC3CC(C)(C1)CC(C(=O)N1CCCC1)(C3)C2,2.5,.,.,.,-2,
COc1cc(C(=O)N2CCN(c3ccc([N+](=O)[O-])cc3)CC2)ccc1OCc1c(C)noc1C,-0.4,6,-3,7%,0,
Cc1ccc(C(=O)N2CCN(C)CC2)cc1S(=O)(=O)N1CCCCCC1,-1.5,.,.,.,-9,
COc1ccc(Cl)cc1C(=O)NNC(=O)c1cccnc1,0.1,6,-47,-7%,1,
CN(CC(=O)Nc1c(Cl)cccc1Cl)C(=O)CCC1CCCC1,0.4,.,.,.,-7,
Cc1cc(C(=O)N/N=C/c2ccccc2Br)no1,-1.1,-5,-47,2%,2,
CN(Cc1ccon1)C(=O)CC1C(=O)NCCN1Cc1cccc(Oc2ccccc2)c1 (centres undefined),0.9,-2,.,-2%,-5,
CN(C(=O)c1ccc(=O)n(Cc2ccc(Cl)cc2)c1)c1ccccc1,-1.1,-2,.,0%,-6,
CC(C)c1ccc(OCC(=O)N2CCCN(C)CC2)cc1,-11,.,.,.,-2,
CCOCCCN(Cc1cc2cc(C)cc(C)c2[nH]c1=O)C(=O)N(CC)CC,4.6,6,12,-2%,-9,
COc1ccc(/C=C/C(=O)Nc2cc(S(=O)(=O)N3CCOCC3)ccc2N2CCCC2)cc1OC,-0.1,3,.,4%,-1,
O=C(Cc1c(F)cccc1Cl)c1ccc(O)cc1O,4.5,5,-47,1%,3,Arbovirus anti repeat=12
CN=C(NC1CCCCC1)c1ccc([N+](=O)[O-])cc1,0.1,.,.,.,-17,
CCOC(=O)c1c(-c2ccc(C)o2)csc1NC(=O)CN1CCCCC1,1.3,-14,.,5%,19,
O=C(O)/C=C/C(=O)Nc1ccc(Oc2ccc(NC(=O)/C=C/C(=O)O)cc2)cc1,8.0,1,-21,-12%,-4,
C[C@@H]1C(=O)OC[C@H]1NC(=O)OCc1ccccc1,-4.4,.,.,.,-9,

# Reprinted from the listing for reference:
SMILES,RecA splice inh,Arbovirus anti,YopH PTP inh,Mtb H37Rv,Mtb betalactam,others
CN=C(NC1CCCCC1)c1ccc([N+](=O)[O-])cc1,0.1,.,.,.,-17,
CCOC(=O)c1c(-c2ccc(C)o2)csc1NC(=O)CN1CCCCC1,1.3,-14,.,5%,19,
O=C(O)/C=C/C(=O)Nc1ccc(Oc2ccc(NC(=O)/C=C/C(=O)O)cc2)cc1,8.0,1,-21,-12%,-4,

# In the list so far, 2 have a COOH group.
SMILES,RecA splice inh,Arbovirus anti,YopH PTP inh,Mtb H37Rv,Mtb betalactam,others
CCn1nc(CC(=O)O)c2ccccc2c1=O,2.6,7,.,2%,-5,
O=C(O)/C=C/C(=O)Nc1ccc(Oc2ccc(NC(=O)/C=C/C(=O)O)cc2)cc1,8.0,1,-21,-12%,-4,
